Screening results as filed in PubChem.
BJeLR lethal: BJeLR cell viability loss | BJeLR (HRASV12) viability, CellTiter-Glo ATP luminescence, 48 h; reference of the scale not given here | inhibition, % (no concentration beside the values) | 300,000 compounds, 0.17% hits | AID 1554;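 active = replicate mean above 50%; inconclusive = above 50% but judged a plate artefact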;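 note: 50 nL library stock added to about 25 µL; numbers are from one replicate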
Bead autofluor: compound fluorescence in toxin protease inhibitor counterscreen; 360,000 compounds, 3.1% hits; fluorescence intensity (no concentration beside the values); AID 624483; compound autofluorescence counterscreen, microsphere flow cytometry; hits give high values;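 active = at least 3 SD above the mean of all compounds, about 16000 in these data; inconclusive = too few beads counted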;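 note: 100 nL of 1 mM stock went into each well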
PrP UTR inh: inhibition of PrP 5' UTR reporter expression; cell-based PrP 5' UTR mRNA reporter, plate reader; inhibition, % (concentration not given with the values); 340,000 compounds, 0.35% hits; AID 488862;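 active = every replicate at 50% or more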;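 note: 0 = median of the neutral control wells; tested in H4 reporter cells; numbers are from one replicate; inactives centre near -14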
RN4220 kill: kills Staphylococcus aureus RN4220. S. aureus RN4220 growth, OD600, 16 h. inhibition, % (concentration not given with the values). 330,000 compounds, 0.33% hits;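 active = z-score of -3 or lower and OD600 up to 0.18 on both plates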;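 note: plate controls were untreated cells for no effect and reference antibiotic for full effect; stock transfer was 100 nL into about 80 µL; one replicate is shown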
Mtb hypoxia inh: Mtb hypoxia fluorescent reporter inhibition | fluorescence inhibition, % (test concentration not listed) | AID 1159583 | M. tuberculosis hypoxia-regulated fluorescent reporter, fluorescence | 300,000 compounds, 0.1% hits;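 active = 35 to 45% if threefold the growth effect, above 45% if 1.5-fold the growth effect; inactive = the rest, general growth blockers included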;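 note: wells of about 50 µL received 100 nL stock; 0% = vehicle wells and 100% = reference inhibitor wells; whole bacteria with a GFP reporter of the hypoxia response; strong numbers were not always called active; many hits fall short of the cut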
ugtP null kill: kills S. aureus RN4220 lacking UgtP; S. aureus RN4220 ugtP deletion, OD600 growth, 16 h; some inactives read as strong as hits; growth inhibition, % (no concentration beside the values); 330,000 compounds, 0.54% hits; AID 1259309;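 active = z-score under -3 and OD600 up to 0.15 on both plates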;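 note: plate controls were untreated wells for no effect and antibiotic for full effect; wells of about 80 µL received 100 nL stock; the first replicate is given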
Mtb hypoxia inh growth: recorded beside Mtb hypoxia inh, whose call it bears; growth inhibition, %; measured here: M. tuberculosis growth (absorbance);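 0% = vehicle and 100% = reference antibiotic; read after six days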
* = called active by the depositor; ? = inconclusive; . = no result given; & = joins results of further samples.

SMILES	BJeLR lethal	Bead autofluor	PrP UTR inh	RN4220 kill	Mtb hypoxia inh	Mtb hypoxia inh growth	ugtP null kill
COc1cc(/C=C(\C#N)C(=O)NC2CCCCC2C)ccc1OS(=O)(=O)c1ccc(C)cc1 (stereo unspecified)	84*	2425	-16	4.7	16	1	-1
COCCCNC(=O)C[C@H]1C[C@H](C(=O)N(C(C)C)C(C)C)[C@@]2(C)c3[nH]c4cc(CCC(=O)N(C)C)ccc4c3CCN2C1=O	.	3940	2	5.5	-7	2	10
C=C(C)C(=O)N1CC2(CC(c3cccc(NC(=O)/C=C\C=C/C)c3)=NO2)C[C@H]1C(N)=O (stereo partly specified)	-3	3937	-15	.	.	.	.
CSc1ccccc1C(=O)N1CCCC(CCC(=O)NCc2ccc(F)c(F)c2)C1 (stereo unspecified)	1	5301	-12	-0.5	-1	8	1
COc1ccc(/C=C2\C(=O)ON=C2c2ccccc2)cc1	-2	3907	-19	4.4	2	4	18
Cc1ccccc1NCC(=O)NN=Cc1c[nH]c2ccccc12	.	.	.	0.2	12	11	-1
Cc1nc(C)c(NC(=O)N2CCc3ccccc32)cc1NC(=O)N1CCc2ccccc21	3	2736	-3	5.0	.	.	-7
CC(C)[C@H](NC(=O)N1CC(=O)Nc2ccccc21)C(=O)N[C@H](Cc1c[nH]c2ccccc12)C(=O)O	-5	5176	-24	6.5	.	.	-9
CC1=C(C)CC(C(=O)NCc2cccc(Cl)c2)C(C(=O)O)C1 (stereo unspecified)	-4	3826	12	.	.	.	.
O=C(COc1ccccc1[N+](=O)[O-])N1CCN(c2ccccn2)CC1	6	6677	-6	-0.5	5	4	-1
CN1CCN(c2nc(-c3ccccc3)nc3c2oc2ccccc23)CC1	-11	3255	-24	18	.	.	-6
CCOc1ccc(C(=O)CC(=O)C(=O)NCCc2ccc(OC)c(OC)c2)cc1	-2	9657	-10	5.6	2	4	-4
CNc1oc(Cc2cccc3ccccc23)nc1C#N	-16	17571*	6	5.3	4	-5	-8
CCNC(=O)/C(C#N)=C/c1c(N2CCOCC2)nc2ccccn2c1=O	-3	2486	-31	3.6	17	11	17
Cc1ccc(N2C(=O)c3ccccc3C2(O)c2ccccc2)cc1 (stereo unspecified)	.	3624	6	0.8	.	.	-1
CCOc1ncccc1C(=O)Nc1cc(S(=O)(=O)N2CCCCC2)ccc1Cl	.	5780	-7	19	-2	-4	6
CCOC(=O)N1CCN(C(=O)c2ccc(N(C)S(=O)(=O)c3ccc(C)cc3)cc2)CC1	9	?	-6	4.4	6	13	2
O=C(Nc1nc(-c2ccc(S(=O)(=O)N3CCOCC3)cc2)cs1)c1ccccc1	19	3095&1947	7&2	-0.9&-1.9	2&4	4&-3	-2&3
O=C(Cc1ccc(Cl)cc1)N1CCN(C(=O)c2ccco2)CC1	-2	3411	-24	-2.1	.	.	2
COc1ccc(C(C)=NNC(=O)c2ccc(-c3ccccc3)cc2)c(F)c1	.	.	.	2.5	0	-1	6
O=C(COC(=O)/C=C/c1ccccc1)Nc1cccnc1Cl	-2	4942	-20	2.8	10	2	-2
COC(=O)C1C(O)=C(C(C)=N)C(=O)CC1(C)C (stereo unspecified)	-2	2844	-23	-1.4	.	.	-3
CSCCC(NC(=O)OCc1ccccc1)C(=O)O (stereo unspecified)	-11	4263	-25	-1.8	7	-5	5
Cc1ccc(NC(=O)C2Oc3ccccc3OC2C)cc1 (stereo unspecified)	-2	3444	-8	7.1	11	-9	7
CC(C)c1ccc(N(C(=O)c2ccc3c(c2)OCO3)C2C=CS(=O)(=O)C2)cc1 (stereo unspecified)	-3	5776	-4	1.4	14	-1	2

Additional results:
SMILES	BJeLR lethal	Bead autofluor	PrP UTR inh	RN4220 kill	Mtb hypoxia inh	Mtb hypoxia inh growth	ugtP null kill
CCCCN(C)Cc1c(C)[nH]c2c(Cl)cccc2c1=O	1	8345	-14	1.2	17	5	11
COC(OC)c1nc(SCC(=O)Nc2cccc(Cl)c2)ncc1C(=O)O	1	3317	-13	2.6	5	-2	2
O=C1COc2ccc(S(=O)(=O)N3CCCCCC3)cc2N1	-4	5901	-5	2.6	15	10	1
CCN(CC)c1ccc(C(=O)NNC(=O)c2cccn2C)cc1	-5	.	-64	-3.9	9	1	0
O=C(OCCOc1cccc(Cl)c1)c1cc(S(=O)(=O)N2CCCCC2)ccc1N1CCOCC1	3	?	-8	-1.9	5	-5	-3
O=C(NC1CCCC1)c1cc(=O)[nH]c2ccccc12	5	.	-12	-2.0	-7	-3	-3
Cc1nc(N2CCOCC2)nc(OCCN2CCOCC2)c1[N+](=O)[O-]	-3	2599	-25	5.0	1	-1	-7
Cc1ccc(CC(=O)Nc2ccc(F)c([N+](=O)[O-])c2)cc1C	8	4288	-4	0.8	-5	0	-7
Cc1ccc(SCC(=O)Nc2ccc(-c3nnc(-c4ccco4)o3)cc2)cc1	7	3447	-44	-18	4	4	-23
CCN1CC2([N+](=O)[O-])CC=C(Cl)C([N+](=O)[O-])(C1)C2 (stereo unspecified)	11	4143	6	10	0	-3	2
O=[N+]([O-])c1ccc(Cl)c(C=NNc2nc(N3CCOCC3)nc(N3CCOCC3)n2)c1	.	.	.	0.0	16	7	-6
Cc1nc2ccc(NC(=O)c3ccc(=O)[nH]c3)cc2s1	-5	6040	-27	0.4	6	5	2
COc1ccc(N2C(=O)/C(=C/c3ccc(N(C)C)o3)C(=O)NC2=S)cc1	3	4319	5	-2.0	8	11	-5
O=c1[nH]c2ccccc2nc1/C=C(\O)c1cccs1	-10	2169	-82	.	.	.	.
C/C(CC(=O)Nc1cccc(F)c1)=N\NC(=O)c1ccncc1	-13	5348	-6	.	.	.	.
CC(C)(C)C(=O)COc1ccccc1[N+](=O)[O-]	-2	3268	-17	6.0	1	0	5
COc1cccc(CC(=O)NCCCSc2ccccc2)c1	7	5648	-3	1.2	3	5	6
Cc1csc(NC(=O)CSc2nsc(SCC(=O)Nc3nc(C)cs3)c2C#N)n1	-1	21632*	-129	28	12	14	-16
COc1ccccc1OCCn1c(SCC(=O)O)nc2ccccc21	-8	3061	4	6.2	3	-2	7
CC(=O)c1ccc(NC(=O)C(C)Sc2n[nH]c(-c3cccnc3)n2)cc1 (stereo unspecified)	2	4062	-17	3.0	13	6	10
Cc1ccc(C2C(C(=O)c3ccco3)=C(O)C(=O)N2c2nnc(C)s2)cc1 (stereo unspecified)	3	4287	-16	20	11	7	-5
Cc1ccc(CCN2C(Nc3ccccc3)=NC[C@@H]2C)cc1	.	3879	-3	-12	14	7	-3
CC1(C)C(Cl)C(=O)C(C(=O)c2ccccc2)C(=O)C1Cl (stereo unspecified)	11	4070	-37	6.8	-3	-7	6
Cc1cccc([N+](=O)[O-])c1NC(=O)COC(=O)C1CC2CCCC(C1)C2=O (stereo unspecified)	-2	4513	-21	-1.0	1	10	8
CCCCN1C(=O)C(=O)N(CC(=O)Nc2cc(Cl)ccc2OC)C1=O	.	2898	3	-1.3	1	4	3

Continued.
SMILES	BJeLR lethal	Bead autofluor	PrP UTR inh	RN4220 kill	Mtb hypoxia inh	Mtb hypoxia inh growth	ugtP null kill
CCOc1ccc(NC(=O)C2CC(=O)N(CCc3ccc(OC)c(OC)c3)C2)cc1OCC (stereo unspecified)	.	3473	4	-3.2	-11	-1	-8
CC1CN(C2CC(C)(C)NC(C)(C)C2)CCC1=O (stereo unspecified)	-8	4040	-10	4.0	6	13	3
Cc1ccc(S(=O)(=O)N2CCN(c3nc(C)nc4sc(C)c(C)c34)CC2)cc1	3	.	.	4.7	15	6	11
COc1cccc(C(=O)NCC(=O)OCC(=O)c2ccccc2)c1	-19	2657	-21	2.2	10	6	6
CCN(CC)c1cccc(OCC(=O)N2c3ccccc3CC2C)c1 (stereo unspecified)	.	3582	2	2.8	4	8	5
COc1ccc(C(=O)Nc2ccc(OCC(=O)N3CCOCC3)cc2)c(OC)c1OC	1	6747	-7	.	.	.	.
CCOC(=O)NN=Cc1ccc(OC/C=C/c2ccccc2)cc1	.	.	.	-2.5	0	-4	0
COc1cc(NC(=O)CCCOc2ccc(Cl)cc2Cl)c(C(=O)O)cc1OC	-9	4535	-21	3.6	7	16	3
CNCC(O)c1ccc(O)cc1 (stereo unspecified)	-5	6253	.	5.7	-3	1	0
COc1cccc(-c2nc(CS(=O)(=O)CC(=O)NC3CCCc4ccccc43)c(C)o2)c1 (stereo unspecified)	-6	4634	-7	-2.3	1	16	-27
C=CCN(c1ccc(Cl)cc1)S(=O)(=O)c1cccc(C(=O)O)c1	16	3777	-7	13	18	-1	20
CCOC(=O)Cc1csc(SCn2nnc3ccccc3c2=O)n1	-6	3141	-20	3.0	8	8	-4
COc1cc2c3cc1Oc1c(OC)c(OC)cc4c1C(Cc1ccc(cc1)Oc1cc(ccc1O)CC3N(C)CC2)N(C)CC4 (stereo unspecified)	.	.	.	-0.5	8	9	0
Cc1cc(C)n(C(=O)c2cc([N+](=O)[O-])cc([N+](=O)[O-])c2)n1	-6	3834	-13	2.8	-3	-3	9
COc1ccccc1OCCn1c(=O)sc2ccccc21	8	9983	-17	11	7	-17	-2
CN1CCN(C(=S)NC(CC(=O)c2ccccc2)c2ccccc2)CC1 (stereo unspecified)	-4	4041	-12	0.6	6	11	2
CCc1ccc([C@@H]2CC=C(C(=O)O)[C@H](c3ccc(Br)cc3)N2S(=O)(=O)c2ccc(C)cc2)cc1	.	3669	-19	4.2	3	8	1
CCOc1cc(-c2nc(-c3ccc(OC)cc3)no2)cc(OCC)c1OCC	3	3217	-14	2.2	2	6	-10
Cc1ccccc1N=C1NC(=O)C(CO)(CO)S1	9	3319	-29	3.2	-8	-4	5
O=C(O)c1sccc1Oc1ccc(NS(=O)(=O)c2ccc(Cl)cc2)cc1	-7	3769	-26	-1.9	13	-3	9
Cc1ccc(OCCNC(=O)/C=C/c2ccccc2)cc1	-12	2504	-8	2.3	2	2	29
O=C(C1CCC(CNc2c(N3CCOCC3)c(=O)c2=O)CC1)N1CCN(c2ccccc2)CC1 (stereo unspecified)	.	5806	-3	2.2	.	.	13
O=C(COc1ccc(Cl)cc1Cl)Nc1ccccc1F	2	3571	-47	1.5	-8	-1	-5
CC(=O)N1CCc2cc(S(=O)(=O)NC(CC(C)C)C(=O)N3CCc4ccccc4C3)ccc21 (stereo unspecified)	-1	9201	-10	6.4	5	13	-2
CN(C)/N=C/c1c(O)ccc2ccccc12	0	2910	-28	.	.	.	.

Other results follow.
SMILES	BJeLR lethal	Bead autofluor	PrP UTR inh	RN4220 kill	Mtb hypoxia inh	Mtb hypoxia inh growth	ugtP null kill
COc1ccc(Nc2nc(-c3ccccc3)nc3ccccc23)cc1S(=O)(=O)N1CCOCC1	8	4747	.	-5.5	-4	-3	-5
COc1ccc(N2C(=O)CCC(C(=O)O)C2c2ccc(F)cc2)cc1 (stereo unspecified)	4	2307	-28	0.4	.	.	3
CCN(C(=O)CN1CCN(c2cccc(Cl)c2)CC1)c1c(N)n(Cc2ccccc2)c(=O)[nH]c1=O	-13	3216	0	3.9	0	9	3
Cc1[nH]c(C)c(S(=O)(=O)NCCc2ccccc2)c1C(=O)N1CCCC1	4	6437	-32	-2.3	1	4	-4
O=C(c1cccnc1)N1CCN(C(=O)c2ccco2)CC1	0	8204	-8	1.9	6	-3	0
O=C(Nc1ccccc1)C1=CC(c2ccc3c(c2)OCO3)CC(OCCCCO)O1 (stereo unspecified)	.	.	.	-1.7&8.2	8&12	7&5	-17&-5
c1ccc(-c2csc(Nc3nc(N4CCOCC4)nc(N4CCOCC4)n3)n2)cc1	-4	2473	10	-2.5	.	.	1
O=C(NCc1ccc2c(c1)OCO2)C(=O)Nc1ccccc1	0	3339	-32	5.4	14	8	4
CCN(CC)c1ccc(NC(=O)c2ccccc2F)cc1S(=O)(=O)Nc1ccccc1OC	6	2013	-2	4.7	0	-1	6
CC(C)(C)OC(=O)NC(C(=O)OC(C)(C)C)c1ccc2ccccc2c1 (stereo unspecified)	.	.	.	3.1&2.4	5&11	5&5	8&4

Three entries out of the list, ordered by molar mass, rising.
SMILES	BJeLR lethal	Bead autofluor	PrP UTR inh	RN4220 kill	Mtb hypoxia inh	Mtb hypoxia inh growth	ugtP null kill
COc1ccc(N2C(=O)CCC(C(=O)O)C2c2ccc(F)cc2)cc1 (stereo unspecified)	4	2307	-28	0.4	.	.	3
O=C(Nc1ccccc1)C1=CC(c2ccc3c(c2)OCO3)CC(OCCCCO)O1 (stereo unspecified)	.	.	.	-1.7&8.2	8&12	7&5	-17&-5
c1ccc(-c2csc(Nc3nc(N4CCOCC4)nc(N4CCOCC4)n3)n2)cc1	-4	2473	10	-2.5	.	.	1

Rows are unselected (roughly 3.9% active in at least one column).
